MT1-MMP act inh – blockers of MT1-MMP proenzyme processing, primary screen, HT1080 RFP-PRO-GFP cells, GFP/RFP fluorescence; Matrix metalloproteinase-14 (Homo sapiens), P50281; GFP/RFP ratio fluorescence, overnight; percent of plate control window, DMSO zero; GFP/RFP ratio change, % at 20 µM; hit rate 0.061% among 360,000;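 active = GFP/RFP ratio change of at least 30% with cell ATP level not reduced by more than half and red fluorescence within 50% of control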; also: strong numbers were not always called active
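Material – HT1080 RFP-PRO-GFP cells · Control set – DMSO wells and RFP-L50D-GFP cells · Incubation – overnight cell settling, then overnight compound exposure, 37 °C, 5% CO2 · Compound dosing – single-point 20 µM compound, 1% DMSO · Read-out – GFP/RFP fluorescence ratio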
eIF4H FP inh – human eIF4H binding inhibitors, primary screen, translation initiation inhibitor project, biochemical, uHTS, fluorescence polarization. AID 2012, 2009. inhibition, % at 35 µM. eIF4H fluorescence polarization binding assay. hit rate 0.94% among 290,000. Eukaryotic translation initiation factor 4H (Homo sapiens), Q15056;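 active = 50% or more with normal probe brightness, or confirmed in later tests; inconclusive = above 50% with abnormal brightness, or retests that disagree; inactive = below 50% or failed in later tests; about a fifth of its hits are not listed in these tables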;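 also: calls also rest on retests at 20 µM and on dose response follow-up; 0% = protein and probe with vehicle and 100% = probe without protein; strong numbers were not always called active; many hits fall short of the cut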
PABP polyA inh – PABP poly(A) RNA binding inhibitors, primary screen, biochemical, fluorescence polarization, uHTS. Polyadenylate-binding protein 1 (Homo sapiens), P11940. inhibition, % at 35 µM. hit rate 1% among 290,000;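 active = 50% or more with normal probe brightness, or confirmed in later tests; inconclusive = above 50% with abnormal brightness, or retests that disagree; inactive = below 50% or failed in later tests; about a fifth of its hits are not listed in these tables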;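 also: calls also rest on retests at 20 µM and on dose response follow-up; controls were probe without protein and protein plus probe with vehicle; some compounds called inactive have numbers as strong as hits; many hits fall short of the cut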
Target sequence (P11940 whole entry, looked up): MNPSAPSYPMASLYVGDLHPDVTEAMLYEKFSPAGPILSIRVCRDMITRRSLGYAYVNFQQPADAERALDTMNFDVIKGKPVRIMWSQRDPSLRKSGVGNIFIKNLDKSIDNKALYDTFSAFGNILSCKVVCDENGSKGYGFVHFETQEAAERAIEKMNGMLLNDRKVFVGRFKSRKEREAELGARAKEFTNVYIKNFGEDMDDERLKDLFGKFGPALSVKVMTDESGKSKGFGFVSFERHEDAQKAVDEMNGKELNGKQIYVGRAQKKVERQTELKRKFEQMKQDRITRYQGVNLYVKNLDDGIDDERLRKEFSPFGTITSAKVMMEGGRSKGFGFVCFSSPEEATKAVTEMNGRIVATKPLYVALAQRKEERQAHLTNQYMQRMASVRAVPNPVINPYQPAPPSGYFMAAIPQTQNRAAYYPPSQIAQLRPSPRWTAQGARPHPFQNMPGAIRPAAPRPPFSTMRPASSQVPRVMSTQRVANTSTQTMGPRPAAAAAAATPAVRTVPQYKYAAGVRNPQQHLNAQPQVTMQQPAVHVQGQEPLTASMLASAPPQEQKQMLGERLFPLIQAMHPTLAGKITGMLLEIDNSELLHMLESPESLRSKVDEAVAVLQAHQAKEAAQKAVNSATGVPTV
CSC inhib – cancer stem cell viability inhibitors, primary screen, luminescence; cancer stem cell-like cells viability; inhibition, % at 7.5 µM; hit rate 1.1% among 300,000; AID 2717, 2010;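 active = mean at 75% or more and at least half the replicates too; inconclusive = mean and replicates disagree; tested in HMLE shEcad cells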;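 also: 0% = median of negative and 100% = median of positive control wells; the first replicate is given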
Rce1 inhib – yeast Rce1p protease inhibitors, primary screen, biochemical, fluorescence, cell-free homogeneous. yeast membranes, quenched prenylated peptide cleavage fluorescence. calls only. hit rate 0.27% among 290,000. AID 2563, 2010;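 active = fall in fluorescence gain of 50% or more versus controls, with final raw signal at or below 3038400; inconclusive = same 50% fall but final raw signal above 3038400; inactive = fall in fluorescence gain under 50%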;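 also: plate controls were neutral control wells for no effect and wells lacking membranes for full effect; tested at 10 µM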
Target sequence (Q03530 whole entry, looked up): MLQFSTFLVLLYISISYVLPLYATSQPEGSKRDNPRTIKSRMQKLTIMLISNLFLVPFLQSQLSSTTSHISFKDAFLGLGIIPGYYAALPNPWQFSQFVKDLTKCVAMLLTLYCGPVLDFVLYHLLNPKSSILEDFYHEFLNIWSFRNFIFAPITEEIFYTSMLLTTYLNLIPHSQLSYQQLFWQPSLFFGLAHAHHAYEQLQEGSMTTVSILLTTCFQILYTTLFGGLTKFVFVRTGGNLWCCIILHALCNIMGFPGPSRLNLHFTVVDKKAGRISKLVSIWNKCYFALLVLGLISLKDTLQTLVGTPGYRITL
HIV Env fusion – inhibitors of HIV-1 Env-driven cell-cell fusion, primary screen, HeLa-JRFL effector, CEM21 target cells, luciferase; inhibition, % at 12.3 µM; hit rate 1.1% among 360,000; AID 651610, 2012;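 active = mean replicate inhibition score of at least 50 and every replicate individually at or above 50; inconclusive = only one of the two criteria met; inactive = mean below 50 and not all replicates reaching 50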;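 also: 0% = plate neutral controls and 100% = maraviroc near 300 nM; one replicate is shown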
Yeast UUG start – modulators of yeast start codon fidelity, primary screen, whole organism, S. cerevisiae, single point, plate reader | hit rate 0.13% among 350,000 | S. cerevisiae UUG-firefly luciferase reporter, luminescence/redox ratio | activity score, % at 18.7 µM | AID 602363, 2012;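 active = replicate mean at a twofold rise or more, about +100% in these data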;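 also: firefly luciferase made from a UUG start codon reports start codon fidelity; reporter light over untreated wells divided by growth signal over untreated wells; some hits fall short of that in this replicate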
eIF4H FP inh retest – further read-out of eIF4H FP inh, marked with its call; inhibition, %; compound at 20 µM; confirmation average;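 mean of two retest wells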
PABP polyA inh retest – recorded beside PABP polyA inh, whose call it bears; inhibition, %; compound at 20 µM; confirmation repeats;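 mean of two retest wells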
MT1-MMP act inh RFP – second read-out of MT1-MMP act inh, no call of its own (marks repeat the call); RFP signal change, %; measured here: RFP expression control read;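 0 = vehicle wells; hits needed this value within 50% of zero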
Numbers without * were called inactive; i = inactive; ? = inconclusive; . = not tested or not shown. Not a hit list. About 2.9% of those tested had a hit in this group.

SMILES	MT1-MMP act inh	MT1-MMP act inh RFP	eIF4H FP inh	PABP polyA inh	CSC inhib	Rce1 inhib	HIV Env fusion	Yeast UUG start	others
CCCN1C(=O)c2cc(C(=O)NC3CCCC3)ccc2C1O (stereo unspecified)	-6	4	-6	1	-8	i	-33	-3
Cc1cc(=O)[nH]c(Nc2cccc(C(F)(F)F)c2)n1	-5	-5	9	-6	-3	i	.	-17
CC(C)C(=O)NC(=O)[C@@H]1CCCN1C(=O)/C=C/c1ccccc1	3	4	3	2	-10	i	-6	-4
Clc1ccc(-c2cccc3nccn23)c(Cl)c1	-6	-6	.	.	.	.	-66	-22
CN(C)S(=O)(=O)N1CCN(CC(O)COc2ccc(-c3ccccc3)cc2)CC1 (stereo unspecified)	3	-7	-3	6	16	i	11	-15
COCCn1c(=O)[nH]c2cc(C(=O)N3CCN(c4cccc(C)c4C)CC3)ccc2c1=O	3	-7	-8	-5	4	.	28	-16
COc1ccc(Cn2c(=S)[nH]c3cc(C(=O)NCCCN4CCOCC4)ccc3c2=O)cc1	5	-2	-6	-5	19	i	0	-10
Cc1ccc(S(=O)(=O)N2CCCOC2CNC(=O)C(=O)NCc2cccs2)cc1 (stereo unspecified)	-1	-1	3	-7	-14	i	-28	.
N#Cc1nc(COc2ccccc2)oc1NCCCn1ccnc1	-6	1	-2	-2	11	.	-20	-13
O=C1c2cccnc2C(O)N1Cc1ccccc1 (stereo unspecified)	-2	2	-2	-6	.	i	.	-6
COC(=O)C1=C(C)Nc2ncnn2C1c1ccc(C)o1 (stereo unspecified)	1	-1	-14	5	.	i	-16	-18
CC1(C)CC(=O)C=C(Nc2ccc(O)cc2)C1	-3	0	.	.	.	.	2	-9
Cc1cc(C(=O)Nc2cccc([N+](=O)[O-])c2)c(C)o1	2	-1	-1	-8	12	i	-9	-21
COc1cc(OC)c(OC)cc1CN1CCCC(C(=O)N2CCCC2)C1 (stereo unspecified)	0	8	16	2	-16	i	-5	-8
O=C(Nc1cccc(S(=O)(=O)N2CCOCC2)c1)c1ccc2ccccc2n1	-6	-5	8	6	-7	i	8	-11
COc1ccc(S(=O)(=O)N(C)C)cc1NC(=O)Cc1ccc(S(=O)(=O)N2CCOCC2)s1	-2	-5	.	.	.	.	?	-11
CCC1(CC)NC(=O)N(CC(=O)OC(C)C(=O)Nc2ccc(S(N)(=O)=O)cc2)C1=O (stereo unspecified)	-2	0	.	.	.	.	-6	-4
Brc1ccc(-c2nn3c(-c4ccccn4)nnc3s2)o1	-3	-5	38	30	-4	i	-7	-20
COc1cc(OC)cc(C(=O)NCCOC23CC4CC(CC(C4)C2)C3)c1	5	-1	-6	-5	45	i	31	-14
CC(C)CNS(=O)(=O)c1ccccc1C(=O)N1CCCCC1	-4	0	-4	1	-3	i	-73	-6
O=C(NC1CCCCC1)c1cc2ccccc2cc1O	-1	-6	-2	6	61	i	8	-14
CC(C)NS(=O)(=O)c1ccc(NC(=O)NC2CCCCC2)cc1	5	5	-12	0	8	i	-7	9
O=C(c1cccnc1)N1CCN(c2ccc(Cl)cc2)CC1	2	8	-4	28	16	i	.	-27
Cc1ccc(S(=O)(=O)/N=C(/Nc2ccc3[nH]c(=O)[nH]c3c2)c2ccccc2)cc1	0	2	-1	3	-3	i	-20	-17
CCn1c(SCC(=O)N2CCOCC2)nc2ccccc21	-3	-2	11	7	-3	i	3	.
O=C(CSCc1ccccc1)NCCCN1CCOCC1	3	3	0	-4	10	i	22	1
Cc1c(NC(=S)/C=C2\N(C)c3ccccc3C2(C)C)c(=O)n(-c2ccccc2)n1C	33*	8.6*	4	6	-5	i	10	-8
CCCCN1C(N)=NC[C@@H]1Cc1ccc(O)cc1	-2	4	-5	-1	-5	i	4	-8
CN(Cc1ccccc1)c1nc2c(c(=O)[nH]c(=O)n2C)n1CCCc1ccccc1	-6	-8	-1	9	1	i	.	-5
O=C(Nc1ccc2c(c1)C(=O)NC2=O)c1ccc(Cl)s1	-108	-71	-9	-3	-6	?	-12	-13

The closing 2 compounds of the part before come first, to join the parts:
SMILES	MT1-MMP act inh	MT1-MMP act inh RFP	eIF4H FP inh	PABP polyA inh	CSC inhib	Rce1 inhib	HIV Env fusion	Yeast UUG start	others
CN(Cc1ccccc1)c1nc2c(c(=O)[nH]c(=O)n2C)n1CCCc1ccccc1	-6	-8	-1	9	1	i	.	-5
O=C(Nc1ccc2c(c1)C(=O)NC2=O)c1ccc(Cl)s1	-108	-71	-9	-3	-6	?	-12	-13
Cc1ccc(NC(=O)c2cccnc2C(=O)O)nc1	0	1	2	1	-12	i	2	.
COCC(=O)Nc1cc(OC)ccc1OC	1	-2	4	12	-9	i	-206	-12
Cc1cc(C)n(-c2ccc(C(=O)N3CCN(S(=O)(=O)c4ccc(OC(F)(F)F)cc4)CC3)cc2)n1	2	-8	.	.	.	.	9	-19
CC(C)Cn1cc(C(=O)NCCCN2CCC(C)CC2)c2c3ccccc3n(C)c2c1=O	-1	-1	.	.	-6	.	-13	-13
COc1ccccc1CC(=O)Nc1ccc(F)cc1F	3	1	0	11	-6	i	2	.
COC(=O)c1cc(NC(=O)Cn2c(=O)cnc3ccccc32)cc(C(=O)OC)c1	-6	-1	7	-1	-10	i	6	10
CCCNC(=O)CN(C)C(=O)c1n[nH]c2ccccc12	24	6	-4	1	-7	i	-10	-15
CN(C)CCNC(=O)c1ccc(COCC(F)(F)F)cc1	5	2	-7	-3	-8	i	.	-14
CCOC(=O)C(Cc1ccc(NC(=O)/C(=C/c2ccccc2)NC(=O)c2ccccc2)cc1)N1C(=O)c2ccccc2C1=O (stereo unspecified)	4	-2	0	4	0	i	53	-8
COc1ccc(-c2cc(C(=O)O)no2)cc1	.	.	-8	1	6	i	-10	.
C=CCn1c(CSc2ccc(C)cc2)n[nH]c1=S	2	2	-10	-3	1	i	-12	11
O=C(Nc1ccc(Cc2ccc(NC(=O)N3CCOCC3)cc2)cc1)N1CCOCC1	-2	0	3	-2	-6	i	11	-18
CCOC(=O)Cn1c(=NC(=O)C2CC2)sc2c(C)cc(C)cc21	2	-4	7	-5	-7	i	12	-9
Cc1cccc(C)c1-n1c(C)cc(/C=N\Nc2ccc([N+](=O)[O-])cn2)c1C	-47	-15	3	18	0	i	.	12
CC(C)(C)OC(=O)[C@H](Cc1ccccc1)NC(=O)c1ncn2c1c(=O)[nH]c1ccc(Br)cc12	-4	-3	.	.	.	.	-52	-13
CN(C)c1ccc(C(CNS(=O)(=O)c2ccc(F)cc2)c2c[nH]c3ccccc23)cc1 (stereo unspecified)	-7	-6	-1	0	11	i	17	1
Cn1nc(C(F)(F)F)c(-c2ccc(F)cc2)c1NC(=O)c1ccco1	1	-1	-6	-3	1	i	-8	-3
CC(C)(C)C(=O)NC1CC2CCCC(C1)N2C(=O)Nc1ccccc1F (stereo unspecified)	2	-2	-5	6	-8	i	-2	-12
[O-][n+]1onc2c1CCc1[nH]c(-c3ccccc3)nc1-2	3	-3	8	7	.	i	-75	-11
COc1cc(NS(=O)(=O)c2ccc(OC)c(OC)c2)cc(OC)c1	1	0	-3	1	2	i	0	5
COc1cc(C(=O)Nc2cc(C)ccc2C)ccc1OCc1c(C)noc1C	3	-6	.	.	15	.	3	-11
O=C(CCc1ccccc1)N1CCN(c2ccc([N+](=O)[O-])cc2)CC1	5	-6	3	1	0	i	-1	.
O=C(NCc1nnc(SCC(=O)N2CCCc3ccccc32)o1)c1ccccc1F	.	.	-4	53	-8	i	7	3	eIF4H FP inh retest=-4;PABP polyA inh retest=0
Cc1ccc2[nH]c(=O)c3cc(C(=O)N(C)C4CCCCC4)sc3c2c1	.	.	3	-2	2	i	-7	-12
COc1ccccc1NS(=O)(=O)c1cccc(-n2c(O)c(C=Nc3ccccc3C(=O)O)c3ccccc3c2=O)c1	4	3	17	44	53	i	29	-14
Cc1ccc(NC(=O)CN2CCN(c3ccccn3)CC2)cc1S(=O)(=O)N(C)C	1	1	-4	18	.	i	-4	-13
O=C(Nc1ccccn1)[C@@H]1CCC(=O)N1C(=O)OCc1ccccc1	5	8	6	-11	.	i	.	-26
CCN(CC(=O)Nc1ccccc1C(F)(F)F)CC(=O)c1[nH]c(C)c(C(C)=O)c1C	6	-4	.	.	.	.	-11	-1
CN1CCc2c(OCC(=O)N3CCCc4ccccc43)cccc2C1=O	4	-9	-5	4	11	i	-3	.
COc1ccc(-c2noc(CNC(=O)c3ccoc3C)n2)cc1OC	3	3	-7	-11	-2	i	6	-2
CCOc1cc(N2CCOCC2)c(OCC)cc1NC(=O)COc1ccccc1[N+](=O)[O-]	4	1	-4	-12	.	i	7	-4
Cc1cc2n(n1)SC(Nc1ccc(F)c(Cl)c1)N2 (stereo unspecified)	-4	5	0	-2	-4	i	-16	-21
CCOC(=O)N1CCN(c2c(NCc3cccs3)c(=O)c2=O)CC1	-8	-11	-6	-2	24	i	-20	5
CS(=O)(=O)Nc1ccccc1C(=O)Nc1ccc2c(c1)OCCO2	1	3	8	5	-10	i	-31	-7
CC(=O)N1CCOc2ccc(S(=O)(=O)N3C(C)CCCC3C)cc21 (stereo unspecified)	-1	4	-11	5	-1	i	4	-6
c1ccc(-c2cc(N3CCCCC3)nc(-c3ccccc3)n2)cc1	-2	-1	5	4	-9	i	-26	-8
O=C(Nc1ccc(OCc2ccccc2)cc1)c1cccnc1	8	-2	-12	-1	35	i	.	-17
CCCCOc1ccc(C(=O)N/C(=C/C=C/c2ccccc2)C(=O)NCCO)cc1	-2	-2	-2	-8	-6	i	5	-8
Cc1ccc(C(=O)Oc2ccc([N+](=O)[O-])cc2)cc1S(=O)(=O)N1CCCCCC1	-9	0	-5	-4	-13	i	5	-13
CC(C)N(C(=O)CSc1nnc(Cc2ccc3c(c2)OCO3)n1C)C(C)C	2	4	6	-6	10	.	-12	.
O=C(c1cc2nc(-c3ccc(F)cc3)cc(C(F)(F)F)n2n1)N1CCCCC1c1cccnc1 (stereo unspecified)	-4	-30	-8	-11	1	i	7	-7
CCOC(=O)C1CCN(C(=O)c2cc3cc4ccc(C)cc4nc3o2)CC1	5	4	-6	1	5	i	-11	-7
CC(C)C(=O)Nc1cccc(S(=O)(=O)NC2=NCCC2)c1	2	5	.	.	.	.	-6	-17
O=C(CSc1nnc(-c2ccccc2)c(-c2ccccc2)n1)N1CCc2ccccc21	2	-9	-11	4	-23	i	26	-11
O=C(COc1ccc(S(=O)(=O)N2CCCC2)cc1Cl)Nc1ccc2c(c1)OCO2	4	-1	-1	14	19	i	.	-23
N=c1ccn(Cc2ccc(Cl)cc2Cl)cc1	-1	-17	9	10	2	i	.	.
Cc1nc(-c2ccc(S(=O)(=O)NCc3cccnc3)s2)cs1	1	-15	9	-2	6	i	13	-4
O=C(CC1CCCCC1)N1CCC(c2nc(-c3ccc(S(=O)(=O)N4CCCC4)cc3)no2)CC1	-8	-20	-11	-12	42	i	24	-18
O=C(N/N=C/C=C/c1ccco1)c1cnccn1	-4	-2	74	45	3	i	4	2	eIF4H FP inh retest=-6;PABP polyA inh retest=-9

Assay outcomes (PubChem)
